MT1-MMP promoter: inhibitors of MT1-MMP promoter transcription, cell-based, luciferase reporter, luminescence (AID 618) | calls from a first round at 10 µM; hits with a dose series show EC50 in µM | MT1-MMP promoter luciferase reporter cells, luminescence | 0.62% of 87,000 active;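 active = over half of the reporter light lost at 10 µM or EC50 under 50 µM; inactive = the rest and hits that failed the dose series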;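 also: actives suppress MT1-MMP promoter-driven transcription so potencies describe inhibitors; HT1080 fibrosarcoma cells; overnight exposure; toxic or luciferase-blocking compounds were not removed from the actives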
Hsc70: small molecules displacing fluorescent ligand from Hsc70 – biochemical, fluorescence polarization, primary screen (AID 568); Hsc70 fluorescence polarization, probe displacement; higher % means a stronger effect; strong numbers were not always called active; displacement, % at 20 µM, or IC50 in µM where a hit was titrated; 83,000 tested, under 10 active;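 active = displacement above 50% without optical interference and an IC50 on retest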;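 also: ATPase domain with a fluorescein-tagged ATP probe; 0% = vehicle and 100% = excess ADP; read after one hour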
WNV protease inh: WNV NS2B-NS3 proteinase inhibition; AID 577; 0.18% of 65,000 active; WNV NS2B-NS3 protease, fluorogenic substrate Ex360/Em465; stronger effect = lower value; P06935; z-score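 (tested at a level between 10 and 100 µM)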;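 active = z-score at -3 or under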;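 also: score is relative to mean and spread of the compound wells of a plate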
Target sequence (P06935 1371-1501 limits assumed): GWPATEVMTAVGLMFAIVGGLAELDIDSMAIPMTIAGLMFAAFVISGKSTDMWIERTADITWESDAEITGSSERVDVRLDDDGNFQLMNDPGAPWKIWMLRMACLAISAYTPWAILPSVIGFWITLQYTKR
Target sequence (P06935 1502-1679 limits assumed): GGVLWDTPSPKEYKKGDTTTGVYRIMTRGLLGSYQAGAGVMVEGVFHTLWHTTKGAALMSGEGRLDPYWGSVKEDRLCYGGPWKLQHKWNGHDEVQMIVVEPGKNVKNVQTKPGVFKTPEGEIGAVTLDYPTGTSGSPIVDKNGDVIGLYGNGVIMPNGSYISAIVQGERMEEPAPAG
* marks the source's active call; other numbers are inactive results; i = inactive; . = no result given; + = active, no number.

SMILES | MT1-MMP promoter | Hsc70 | WNV protease inh
CCOC(=O)N1CCC(Nc2c(OCC)c(=O)c2=O)CC1 | i | 5.4% | 1.29
COC(=O)c1ccc(COc2cc(O)c3c(c2)OC(C)(C)CC3=O)cc1 | i | -2.6% | 1.48
CCOC(=O)N1CCN(C(=O)c2ccccc2NC(=O)c2ccc(OC)cc2)CC1 | i | 3.3% | 1.09
O=C(c1ccc(=O)oc1)N1CCCc2ccccc21 | i | -6.9% | -0.41
CC1CCN(C(=O)COC(=O)c2cc3ccccc3cc2O)CC1 | i | 5.3% | -0.19
CC(=O)Nc1ccc(C(=O)CSc2nnc(C)o2)cc1 | i | 4.9% | 0.51
Cc1ccccc1NC(=O)CSc1nnc(Cc2cccn2C)n1-c1ccc(F)cc1 | i | -1.8% | 1.05
CCC(C)NC(=O)Cn1c(=O)n(CCCC(=O)NCc2ccccc2Cl)c(=O)c2ccccc21 (stereo unspecified) | i | -0.3% | .
CCOC(=O)C1=C2SCC(=O)N2C(N)=C(C#N)C1 | i | -1.1% | .
CCc1ccccc1N1CSC2=C(C#N)C(c3cc(OC)c(OC)cc3OC)CC(=O)N2C1 (stereo unspecified) | i | 0.8% | 0.38
CC(C)Cn1c(N)c(C(=O)CSc2nnnn2-c2ccc(Cl)cc2)c(=O)n(C)c1=O | i | 1.9% | -0.4
COc1ccccc1NC(=O)c1cccc(NC(=O)c2ccco2)c1 | i | -0.9% | -0.27
COc1cc(CC(=O)OC2CCOC2=O)cc(OC)c1OC (stereo unspecified) | i | 4.5% | -0.42
O=c1cc(N2CCc3ccccc3C2)[nH]c(=O)n1-c1ccc(Cl)cc1 | i | 2.8% | 0.79
O=C1CC(N2CCN(c3ccc(S(=O)(=O)N4CCOCC4)cc3)CC2)C(=O)N1Cc1ccccc1 (stereo unspecified) | i | 0.8% | -0.52
COc1ccc(CNC(=O)CCCNS(=O)(=O)c2cccc3nonc23)cc1 | i | -2.2% | 1.56
CCOc1cc(C2CC(=O)N3CN(C4CCCCC4)CSC3=C2C#N)ccc1O (stereo unspecified) | i | 3.5% | 0.81
Nc1nnnn1/N=C/C(Br)=C/c1ccccc1 | i | 1.7% | 0.5
CCOC(=O)Cc1csc(NS(=O)(=O)c2ccc3c4c(cccc24)C(=O)N3CC)n1 | i | 2.3% | -0.34
CCS(=O)(=O)N1CCC(c2nc(-c3ccc(C)cc3)no2)CC1 | i | -5.5% | 0.45
Cc1cc(C(F)F)n2ncc(C(=O)NCCc3ccccc3Cl)c2n1 | i | -8.3% | .
Cc1ccc(-c2cc(C(=O)NCCN3CCOCC3)no2)cc1 | i | 4.0% | 0.43
Cc1cc(C)cc(-n2ccnc2SCC(=O)Nc2nccs2)c1 | i | 1.8% | -0.46
CC1CCc2nc(NC(=O)c3ccco3)sc2C1 (stereo unspecified) | + | 3.7% | 0.29
CCOC(=O)c1[nH]c(C)c(C(=O)Nc2ccc(C)cc2C)c1C | i | 1.9% | 0.3
CCOc1ccc(C(=O)N2CCCC2)cc1OC | i | 2.9% | -0.51
COc1ccc(NC(=O)c2cc3sccc3n2Cc2ccc(F)cc2)cc1OC | i | 1.3% | .
COCCn1cc(C(=O)N2CCC(C)CC2)c2c3ccccc3n(C)c2c1=O | i | -4.4% | -0.02
CCOC(=O)c1c(C)[nH]c(C)c1C(=O)COC(=O)c1cccc(S(=O)(=O)NC)c1 | i | 4.8% | 0.31
Nc1c2c(nc3ccccc13)N(C1CCCCC1)CC2 | i | -1.1% | -0.62
Cc1nc(SCN2C(=O)c3ccccc3C2=O)n[nH]1 | i | -3.7% | 0.29
CC(=O)OC1CC(C)(C)N(OC(=O)c2ccccc2)C(C)(C)C1 | i | 3.9% | -0.55
Cc1ccc(C(=O)N(Cc2nc(-c3ccc(C)cc3)no2)C(C)C)cc1 | i | -0.5% | -0.89
Cc1ccc(-c2nnc3sc(CCc4ccccc4)nn23)cc1 | i | -0.8% | -0.1
CCOCCCNC(=O)C1CCC(CNS(=O)(=O)c2ccc(F)cc2)CC1 (stereo unspecified) | i | -1.6% | -0.75
C=C(c1ccc(O)cc1)c1ccc(O)cc1 | i | -5.0% | 0.14
O=C(CN1C(=O)NC2(CCCCCC2)C1=O)Nc1ccc(S(=O)(=O)N2CCOCC2)cc1 | i | -0.4% | .
Cc1ccccc1NC(=O)CSC(N)=O | i | -5.3% | -0.64
Brc1ccc(-c2cn3cccnc3n2)cc1 | i | -3.7% | -0.56
CNc1cc(-n2nc(C)cc2-c2ccccc2)ncn1 | i | -2.7% | 1.67
CCCCC(=O)C1=C(N2CCCC2)CC(C)(C)CC1=O | i | -1.5% | .
CCOc1ccccc1CN(Cc1ccco1)S(=O)(=O)c1ccc(-n2cnnn2)c(OC)c1 | i | 2.4% | -0.16
Cc1nn(C)cc1CNC(=O)Nc1ccc(Cl)cc1 | i | -2.2% | .
Clc1ccc2nc(CSc3nncn3-c3ccccc3)cn2c1 | i | 3.5% | .
COc1ccccc1Cn1c(CCCO)nc2ccccc21 | i | 1.8% | -1.08
COc1cccc(-c2csc(N3CCN(C(=O)Nc4ccc(F)cc4)CC3)n2)c1 | i | 4.4% | .
Cc1ccc(S(=O)(=O)NCCCN(C)C)cc1 | i | -0.7% | 0.41
CCCCn1c(SCC(=O)Nc2cc(C)[nH]n2)nc2ccsc2c1=O | i | 2.2% | -0.72
CCN(CC)S(=O)(=O)c1ccc(C(=O)N2CCN=C2SCc2cccnc2)cc1 | i | -1.1% | -0.58
Clc1ccc2c(c1)C=Nc1c(NCc3ccccc3)ncnc1O2 | i | 3.2% | .
O=C(C1CC1)N1CCc2cc(Br)cc(S(=O)(=O)NCC3COc4ccccc4O3)c21 (stereo unspecified) | i | 2.2% | -0.31
COc1ccc(C)cc1NC(=O)C12CCC(C)(C(=O)O1)C2(C)C (stereo unspecified) | i | -1.6% | .
c1ccc(CN2CCN(c3nc4ccccc4n4cnnc34)CC2)cc1 | i | 2.8% | -1.89
Cc1ccc(/C(O)=C2/C(=O)C(=O)N(Cc3ccco3)C2c2cccs2)cc1 (stereo unspecified) | i | 7.5% | -0.26
OCCN=Cc1c(O)[nH]c2ccccc12 | i | 3.5% | .
C=CCn1c(SCC(=O)Nc2c(C)nn(Cc3ccccc3)c2C)nnc1C(O)c1ccccc1 (stereo unspecified) | i | 7.0% | -0.4
COC(=O)c1nnn(-c2nc(N3CCCCC3)nc(N3CCCCC3)n2)c1C | i | -2.2% | 0.12
O=C(Nc1ccccc1-c1nc2ccccc2s1)c1ccco1 | i | -0.9% | -0.82
CCn1c(-c2ccco2)n[nH]c1=S | i | -0.1% | 0.13
O=C(Oc1ccc(/C=N/O)cc1)c1ccccc1 | i | 4.8% | -0.79

Laid out differently: 4 of the compounds above.
OCCN=Cc1c(O)[nH]c2ccccc12
  MT1-MMP promoter: i | Hsc70: 3.5% | WNV protease inh: .

C=CCn1c(SCC(=O)Nc2c(C)nn(Cc3ccccc3)c2C)nnc1C(O)c1ccccc1 (stereo unspecified)
  MT1-MMP promoter: i | Hsc70: 7.0% | WNV protease inh: -0.4

COC(=O)c1nnn(-c2nc(N3CCCCC3)nc(N3CCCCC3)n2)c1C
  MT1-MMP promoter: i | Hsc70: -2.2% | WNV protease inh: 0.12

O=C(Nc1ccccc1-c1nc2ccccc2s1)c1ccco1
  MT1-MMP promoter: i | Hsc70: -0.9% | WNV protease inh: -0.82

(cont.)
SMILES | MT1-MMP promoter | Hsc70 | WNV protease inh
COc1ccc(OC)c(NC(=O)C2C3CCC(O3)C2C(=O)O)c1 (stereo unspecified) | i | -3.7% | -0.85
Cc1ccc(S(=O)(=O)C2(C(=O)Nc3ccc4c(c3)OCO4)CC2)cc1 | i | 3.4% | -0.71
COCCNC(=S)NC12CC3CC(CC(C3)C1)C2 | i | -0.7% | .
Cc1ccc2c(c1)c1c(n2C)C(=O)CCC1 | i | -0.2% | .
O=C(CCCn1c(=S)[nH]c2ccc(Br)cc2c1=O)N1CCN(c2ccccn2)CC1 | i | -4.0% | -1.29
COc1ccc(S(=O)(=O)N2CCCC2C(=O)NCc2cccs2)cc1 (stereo unspecified) | i | -3.6% | 0.09
Cc1ccc(S(=O)(=O)N2CCN(S(=O)(=O)N3CCOCC3)CC2)c(C)c1 | i | -1.9% | .
CCCCOC(=O)CCc1n[nH]c(=O)[nH]c1=O | i | -4.7% | -0.33
CCc1nc2ccccc2c2nc3ccccc3n12 | i | 3.5% | .
CCOC(=O)c1cc(C)n(S(=O)(=O)c2ccc(C)cc2)c1C | i | 1.1% | 1.05
CCOC(=O)C(CSCC(=O)c1ccc(Cl)cc1)NC(=O)OC(C)(C)C (stereo unspecified) | i | 2.6% | .
Cc1cccnc1NC(=O)C1CCN(S(=O)(=O)c2cccs2)CC1 | i | 0.6% | .
COc1cc(OC)c(S(=O)(=O)N2CCCCC2)cc1S(=O)(=O)N1CCCCC1 | i | -2.3% | 0.41
COc1ccc(NC(=O)N2c3ccccc3CC2C)cc1OC (stereo unspecified) | i | -0.8% | 2.22
Cc1oc(-c2ccccc2F)nc1CN1CCC(C(=O)NCc2ccco2)CC1 | i | -1.0% | 1.6
CN1C(=O)C(C(=O)NC(C)(C)C)C2c3ccccc3OC13CCCCC23 (stereo unspecified) | i | -4.3% | -1.06
CCOC(=O)C1CCN(C(=O)c2ccccc2Oc2ccccc2)CC1 | i | 0.8% | -0.81
CN(C)CCCOC(=O)c1cc2ccccc2o1 | i | -3.2% | -0.43
COCCn1c(=S)[nH]c2ncccc2c1=O | i | -4.6% | 1.08
CCCc1cc(=O)[nH]c(SCc2nc3ccccc3s2)n1 | i | -4.3% | .

Another view of some results above.
Order of values – MT1-MMP promoter	Hsc70	WNV protease inh
COc1ccc(NC(=O)N2c3ccccc3CC2C)cc1OC (stereo unspecified)
→ i	-0.8%	2.22
Cc1oc(-c2ccccc2F)nc1CN1CCC(C(=O)NCc2ccco2)CC1
→ i	-1.0%	1.6
CN1C(=O)C(C(=O)NC(C)(C)C)C2c3ccccc3OC13CCCCC23 (stereo unspecified)
→ i	-4.3%	-1.06
CCOC(=O)C1CCN(C(=O)c2ccccc2Oc2ccccc2)CC1
→ i	0.8%	-0.81

The listing continues:
SMILES | MT1-MMP promoter | Hsc70 | WNV protease inh
CCCCn1nnc(NC(=O)c2ccc(-c3ccccc3)cc2)n1 | i | 3.7% | -0.42
CCN=c1scc(-c2ccco2)n1/N=C/c1ccc(O)cc1 | i | -0.3% | .
CCOC(=O)C1CCN(c2nc3cc(OC)ccc3cc2C#N)CC1 | i | 1.9% | 1.26
CN(C=C1C(=O)CC(C)(C)CC1=O)CCN1CCNCC1 | i | -4.5% | -0.89
COc1cccc(/C=C2\N=C(c3c(-c4ccccc4)noc3C)OC2=O)c1OC | i | -0.3% | .
COc1ccc(C(=O)Nc2ccccc2C(N)=O)cc1 | i | 2.1% | -1.09
Cc1c(NC(=O)C(C)N2C(=O)C3C4C=CC(C4)C3C2=O)c(=O)n(-c2ccccc2)n1C (stereo unspecified) | i | 4.3% | 0.76
COc1ccc(CNC(=O)c2c(O)c3cccc4c3n(c2=O)CCC4)cc1 | i | -2.9% | -0.83
O=C(CSc1nnc(-c2ccccc2)o1)n1c2c(c3ccccc31)CCCC2 | i | -2.3% | 0.35
O=C(CSc1ncn[nH]1)OCN1C(=O)c2ccccc2C1=O | i | 1.2% | -0.4
Cc1ccc(S(=O)(=O)N2CCCC(C(=O)Nc3cccnc3)C2)cc1 (stereo unspecified) | i | -5.1% | .
CCn1c(COc2ccccc2C)nnc1SCC(=O)OC | i | 3.1% | 1.04
O=C(C1CCN(S(=O)(=O)Cc2ccccc2)CC1)N1CCCc2ccccc21 | i | -1.9% | -0.27
Cc1nc(NC(=O)COC(=O)CCS(=O)(=O)c2ccccc2Cl)c(Cl)cc1Cl | i | 0.7% | .
O=C1C(c2ccncc2)=C(O)c2ccccc21 | i | 2.7% | 0.68
Cc1onc(-c2ccccc2)c1C(=O)Nc1ccncc1 | i | 0.7% | 0.98
COc1ccc(OC)c(C2CC(=O)N3CN(c4cccc(Cl)c4C)CSC3=C2C#N)c1 (stereo unspecified) | i | -2.4% | 0.62
Cc1ccc(S(=O)(=O)CCc2nnc(NC(=O)c3cnccn3)s2)cc1 | i | -0.9% | -0.43
Cc1cc2ccccc2n2c(SCC(=O)N3CCc4ccccc4C3)nnc12 | i | 3.2% | .
COCCCNC(=O)CS(=O)(=O)Cc1nc(-c2cccc(OC)c2)oc1C | i | 4.6% | 0.44

Reformatted: entries from further up
Cc1cc2ccccc2n2c(SCC(=O)N3CCc4ccccc4C3)nnc12
  MT1-MMP promoter: i
  Hsc70: 3.2%
  WNV protease inh: .
COCCCNC(=O)CS(=O)(=O)Cc1nc(-c2cccc(OC)c2)oc1C
  MT1-MMP promoter: i
  Hsc70: 4.6%
  WNV protease inh: 0.44

Continuation.
SMILES | MT1-MMP promoter | Hsc70 | WNV protease inh
O=C(C1=COCCO1)N1CCN(C(c2ccccc2)c2ccccc2)CC1 | i | 0.6% | -1.8
COc1ccc(/C=N/Nc2nnc(-c3ncc[nH]3)c3ccccc23)cc1 | i | 0.7% | .
O/N=C1/CCc2nonc2/C1=N/O | i | -0.7% | -0.23
COc1ccccc1N(CC(=O)Nc1cccnc1)S(=O)(=O)c1ccccc1 | i | -2.7% | .
CCOC(=O)CSc1nnc([C@H](C)NC(=O)OC(C)(C)C)o1 | i | 0.1% | -0.19
CCOC(=O)c1cc(=O)n2nc(-c3ccc(C)cc3)nc2s1 | i | 2.5% | 0.03
O=C(Cc1ccccc1)N1CCCC1c1ccccc1 (stereo unspecified) | i | 4.3% | 0.72
COc1cc2c(cc1OC)CN(C(=O)COc1ccc(C#N)cc1)CC2 | i | 2.0% | -1.04

Random draw from the library; overall some 0.77% were active at least once.
